Mtb growth – Mycobacterium tuberculosis H37Rv growth inhibition, cell based, confirmatory dose response (AID 1949); most inactive calls were filed without a number and no value below 0 was filed; inhibition, % at 10 µg/mL, or IC50 in µg/mL where a hit was titrated; actives 1.6% (n = 100,000);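 active = confirmed in a dose series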;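 also: bacteria grown 7 days with compound before Alamar blue readout; 0% = untreated bacteria and 100% = reference antibiotic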
* hit, by the source's call; i = inactive. Only part of the results is shown, so the mix of outcomes need not match the whole.

SMILES	Mtb growth
COc1cc(CNc2cccc(C)c2C)ccc1OCc1ccccc1	i
CCOc1ccc(CNc2ccccc2C)cc1OC	2%
Cc1c2ccccc2nc2c(F)c(N3CCN(C)CC3)c(F)c(F)c12	18%
COc1cc(C2/C(=C(\O)c3ccc([N+](=O)[O-])cc3)C(=O)C(=O)N2CCCCCC(=O)O)ccc1O (stereo not given)	i
Cc1ccc(S(=O)(=O)NC(=O)NC2CCCCC2)cc1	i

Part of the list above in order of SMILES length, rising.
SMILES	Mtb growth
Cc1ccc(S(=O)(=O)NC(=O)NC2CCCCC2)cc1	i
COc1cc(CNc2cccc(C)c2C)ccc1OCc1ccccc1	i
COc1cc(C2/C(=C(\O)c3ccc([N+](=O)[O-])cc3)C(=O)C(=O)N2CCCCCC(=O)O)ccc1O (stereo not given)	i
